# KCNQ2 enhance: potentiators of rat KCNQ2 potassium channel; Potassium voltage-gated channel subfamily KQT member 2 (Rattus norvegicus), O88943; CHO-K1 KCNQ2, FluxOR thallium flux fluorescence; hits give high values; B-score at 10 µM; 310,000 tested, 0.54% active; AID 2239, 2010;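 active = fluorescence ratio B-score at least 3 SD of library B-scores, with initial fluorescence B-score within 3 SD, cut at about 5.3 in these data; same plate scores as AID 2156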;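 also: B-score of peak minus minimum over baseline fluorescence ratio after K+ and Tl+ stimulus; positive B-score means potentiation of KCNQ2 with more thallium influx and brighter signal; only the inactives scoring about 0 or higher are listed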
# Target sequence (O88943 whole entry, looked up): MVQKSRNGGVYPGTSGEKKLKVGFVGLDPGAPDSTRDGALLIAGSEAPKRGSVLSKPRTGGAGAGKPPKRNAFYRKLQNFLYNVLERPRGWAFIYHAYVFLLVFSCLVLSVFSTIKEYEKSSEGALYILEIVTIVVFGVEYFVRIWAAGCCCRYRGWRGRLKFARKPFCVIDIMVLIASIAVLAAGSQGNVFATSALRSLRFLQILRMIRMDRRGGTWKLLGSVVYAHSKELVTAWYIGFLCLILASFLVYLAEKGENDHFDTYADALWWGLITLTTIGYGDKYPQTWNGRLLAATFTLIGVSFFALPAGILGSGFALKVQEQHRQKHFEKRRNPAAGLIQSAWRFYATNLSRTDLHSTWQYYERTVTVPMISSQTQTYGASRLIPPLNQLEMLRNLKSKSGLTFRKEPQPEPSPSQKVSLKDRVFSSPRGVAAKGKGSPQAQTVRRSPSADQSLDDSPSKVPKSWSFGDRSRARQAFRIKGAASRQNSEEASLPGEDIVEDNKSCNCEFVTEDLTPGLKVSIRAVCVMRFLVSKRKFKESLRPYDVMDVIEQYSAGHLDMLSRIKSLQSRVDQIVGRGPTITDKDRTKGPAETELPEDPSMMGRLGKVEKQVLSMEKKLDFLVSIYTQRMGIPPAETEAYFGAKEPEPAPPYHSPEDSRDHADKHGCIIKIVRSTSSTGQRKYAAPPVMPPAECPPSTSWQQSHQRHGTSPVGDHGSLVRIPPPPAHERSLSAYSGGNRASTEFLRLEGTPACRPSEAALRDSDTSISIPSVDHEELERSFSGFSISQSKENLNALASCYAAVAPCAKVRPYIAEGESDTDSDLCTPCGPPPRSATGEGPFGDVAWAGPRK
# KCNQ2 enhance baseline: second read-out of KCNQ2 enhance, no call of its own (marks repeat the call); B-score; compound at 10 µM; measured here: initial fluorescence intensity artifact check;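 brightness before thallium and not channel activity; 0 = typical well and far values either way flag optical interference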
# * marks the source's active call; other numbers are inactive results. A portion of the library, so the mix of outcomes need not match the whole.
Structure,KCNQ2 enhance,KCNQ2 enhance baseline
COc1ccc(/C=N/NC(=O)c2ccoc2C)cc1O,1.4,0.01
CC(C)(C)OC(=O)N[C@@H](Cc1c[nH]c2ccccc12)c1nnc(SCC(N)=O)o1,0.37,0.86
COc1cc([C@@H]2c3cc4c(cc3[C@@H](O)[C@H]3COC(=O)[C@H]23)OCO4)cc(OC)c1O[Si](C)(C)C(C)(C)C,1.1,0.9
Cc1ccc(S(=O)(=O)N(C)c2ccc(OCC(=O)OCc3c(C)noc3C)cc2)cc1,0.01,-0.16
CO/N=C/c1ccc(N2CCCC2)c([N+](=O)[O-])c1,1.4,0.92
N#Cc1c(N)n(CCNC(=O)c2cccs2)c2nc3ccccc3nc12,0.21,-0.22
NC1CCN(c2c(F)cc3c(=O)c(C(=O)O)cn(C4CC4)c3c2Cl)C1 (centres undefined),0.38,2.4
Cc1cccc(Nc2nc(N)nc(CN3CCN(C)CC3)n2)c1,0.06,-0.21
C/C(=N/NC(=O)c1ccc(Cn2cccn2)o1)c1cccc(NC(=O)c2ccncc2)c1,1.4,0.51
CCCn1c(SCC(=O)NC)nnc1C(C)C,1,0.26
COc1ccc(CNC(=O)Cc2ccc(NC(=O)C3=C(C)OCCS3)cc2)cc1,0.85,0.01
Cc1nn2c(-c3ccc(F)cc3)ccnc2c1Cl,0.02,-0.15
CCCCCCSc1nnc(N)s1,0.13,0.02
COc1ccccc1-c1nc(S(=O)(=O)c2ccc(Cl)cc2)c(N(C)C)o1,0.73,0.21
Cc1cc(-c2n[nH]c(=S)n2Cc2ccco2)nn1C,0.68,0.01
O=C(COC(=O)c1ccccc1Oc1ccccc1)NC1CCS(=O)(=O)C1 (centres undefined),2,-0.1
CCN1CCN(C(=O)c2nn(-c3ccccc3)c(=O)c3ccccc23)CC1,0.27,-1.2
O=c1c(-c2cccc3ccccc23)[n+]([O-])c2ccccc2n1O,0.75,0.3
COc1ccc(/C=N/NC(=O)c2cc(O)c(O)c(O)c2)cc1Cn1cc([N+](=O)[O-])cn1,0.03,-2.1
COC(=O)C1Sc2[nH]c(=O)sc2C2c3ccccc3OC(=O)C12 (centres undefined),0.22,-1.2
Cc1nccn1CC(O)COc1ccc(Cl)cc1Cl (centres undefined),0.01,2.2
Cn1nccc1C(=O)N1CCN(c2cccc(C(F)(F)F)c2)CC1,0.12,0.89
C=CCc1cccc2cc(C(=O)N3CCN(C(=O)c4ccccc4)CC3)c(=O)oc12,0.06,-0.57
CC1=CC(=O)C(C(C)C)=C/C1=N\OC(=O)c1cccc2nc(C)oc12,1.2,-1.3
CCc1cccc(NC(=O)Cn2cccc2)c1,1,-0.77
Cc1cc(C(C)C)n2c(nc3ccccc32)c1C#N,1.2,1.1
Cc1ccc(CNC(=O)c2c(C)cc(=O)oc2C)cc1,1,-0.37
COc1ccc(N(CC(=O)N2CCCC2)S(C)(=O)=O)cc1,1.3,0.63
Cn1c(SCc2cccc3ccccc23)nnc1-c1ccco1,0.54,-1
O=C(c1ccc(Br)o1)N(c1ccccn1)C1CCCCC1,1.5,-1.4
CSc1ncccc1C(=O)NCc1ccc(C)cc1,0.54,-1.2
CC1CCN(c2ccc3nnc(CCC(=O)N4CCN(c5ccc(F)cc5)CC4)n3n2)CC1,0.9,-0.43
COc1cccc(CNC(=O)C2CCN(S(=O)(=O)c3cnc[nH]3)CC2)c1,0.65,0.85
COc1ccc(CCNC(=O)CSc2ccc(-c3ccccc3)nn2)cc1,1.2,-0.32
COc1cccc(C2=NOC(C(=O)Nc3ccccc3SC)C2)c1 (centres undefined),0.97,-0.51
COC(=O)c1ccc(CNC(=O)CNc2cc(C(F)(F)F)ccc2N2CCOCC2)cc1,0.01,-2.3
O=C(CC1CCCC1)N1CCCC(Nc2cccc(F)c2)C1 (centres undefined),0.16,-0.58
O=C(c1ccc([N+](=O)[O-])cc1)N(Cc1ccccc1)c1ccccn1,0.25,-0.54
S=C(Nc1ccc(Cl)cc1Cl)N1CCOCC1,0.99,2.6
CC(=O)Nc1ccc(N/C(N)=N/c2nc(C)cc(C)n2)cc1,0.25,0.75
Cn1c2c(c(=O)c3ccccc31)CCC(C)(C)O2,0.95,-0.76
COc1ccc(N2CCN(C(=O)CSc3nnc(-c4ccc5[nH]c(C)c(C)c5c4)o3)CC2)cc1,1.8,-1.2
CC1=CC(C)(C)N=C(Nc2ccc(C)cc2)S1,0.86,-0.03
Cc1ccc2nc(NC(=O)CC3Oc4ccccc4NC3=O)sc2c1 (centres undefined),0.82,-0.61
Cn1cc(CN2CCc3c([nH]c4ccccc34)C2C2CCCCC2)cn1 (centres undefined),0.36,-0.77
CC(C)Oc1ccc(C2CNC(=O)C2)cc1 (centres undefined),2.2,-0.68
Cc1onc(-c2ccccc2)c1C(=O)/C=C/N(C)C,1.5,-0.01
COc1ccc(N(CC(=O)NCc2ccc(C)cc2)S(=O)(=O)c2c(C)noc2C)cc1,1,2
O=S(=O)(c1ccccc1)N1CCn2c(nc3ccccc32)C1,0.13,-0.52
CCCCc1ccc(-c2csc(/C(C#N)=C/c3ccc(C)o3)n2)cc1,0.93,0.81
COC(=O)c1ccc(C(=O)OC)c(NC(=O)C(C)C)c1,0.22,-0.86
CC(=O)C1=C(O)C(=O)N(CCO)C1c1ccccc1 (centres undefined),0.04,-0.01
CC(=O)c1cccc(NC(=O)CCC(=O)c2ccc(F)cc2)c1,0.02,-0.02
O=S(=O)(Nc1ccc(-c2ccc3nncn3n2)cc1)c1ccc(Cl)s1,2,-3.3
COc1ccc(C2C3=C(CCCC3=O)Nc3c(-c4ccccc4)c(C)nn32)cc1 (centres undefined),2.6,-1.3
CCOCCCNC(=S)NCCNc1nc2ccc(C)cc2cc1C#N,0.65,0.2
CCCCc1cc(=O)oc2cc(OCC(=O)Nc3cccnc3)c(Cl)cc12,1.1,-0.86
CCN1CCN(S(=O)(=O)c2c(C)[nH]c(C)c2C(=O)N2CCCCC2)CC1,2.7,-0.89
O=C(/C=C/c1ccc2ccccc2n1)N1CCN(c2ccccc2)CC1,1.1,-2.1
O=C(Nc1ccc(Br)cc1)c1ccccc1Br,0.1,-1.7

# Other results follow.
Structure,KCNQ2 enhance,KCNQ2 enhance baseline
Cc1nnc2n(Cc3ccccc3)c(=O)c3c4c(sc3n12)COC(C)(C)C4,0.38,-0.03
O=C(CSc1nnc2scc(-c3ccccc3)n12)Nc1ccc2c(c1)OCCO2,1.9,-0.7
CCCCC(=O)Nc1ccc(Br)cn1,0.29,-1.6
Cc1ccc(CNC(=O)C2CCC(=O)N2Cc2ccccc2Cl)cc1 (centres undefined),1.1,-2.2
COc1ccc(/C=C2\Oc3cc(OCC(=O)N4CCC[C@H]4C(=O)O)ccc3C2=O)c(OC)c1OC,0.93,-0.8
CCOC(=O)C1C(=O)Nc2nc3ccccc3n2C1C(C)C (centres undefined),0.55,0.29
CC(=O)OC(C(=O)NC1CCCCC1)c1ccccc1F (centres undefined),0.52,-0.01
O=C(CCc1nnc2n(Cc3ccc(Cl)cc3)c(=O)c3ccccc3n12)N1CCN(c2ccccn2)CC1,1.1,-0.42
CCOC(=O)c1cnn(-c2ccccc2)c1-n1cccc1C(=O)C(=O)N(CC)CC,0.3,0.39
Cc1ccc(N2C(=O)CS/C2=C(\C(Cl)=C(Cl)Cl)[N+](=O)[O-])cc1,0.66,0.21
COc1ccc(C)c2sc(N(CCN(C)C)C(=O)c3cccc(N4C(=O)CCC4=O)c3)nc12,0.88,0.68
O=[N+]([O-])c1ccc(Oc2ccc(-c3nnco3)cc2)c(Cl)c1,0.33,-0.49
O=C(NCCS(=O)(=O)NCC1CCCO1)c1ccccc1 (centres undefined),0.7,-0.27
O=C(COC(=O)Cn1[nH]c(=O)c2ccccc2c1=O)Nc1ccc2c(c1)OCO2,0.43,0.74
Cc1nnc2ccc(-c3ccc(NS(=O)(=O)c4ccccc4F)cc3)nn12,0.91,-1.6
CCOC(=O)C1(CCOc2ccccc2)CCN(Cc2ccc(C)o2)CC1,0.62,-1.3
CC(C)CN1CCN(Cc2cnc(N3CCOCC3)s2)CC1CCO (centres undefined),0.03,1.1
Cc1ccc(N2C(=O)CCC2(C#N)c2ccccc2)cc1 (centres undefined),0.49,0.71
CCOc1ccc(-n2c(=O)c3c4c(sc3n(CC(=O)NCCCOC)c2=O)CCCCC4)cc1,0.1,0.91
O=C(CCC(=O)OCCCC(F)(F)C(F)(F)F)NC1CCCCC1,1.9,2.2
O=C(Nc1nc2ccc(S(=O)(=O)N3CCCC3)cc2s1)c1cccs1,0.07,-1.3
O=C(NCCOc1ccccc1)C1CCC(=O)N(CCCN2CCOCC2)C1 (centres undefined),1.2,-0.02
CCc1ccc(NC(=O)CCc2nc3ccccc3[nH]2)cc1,2.7,-0.54
Cc1noc(C)c1C(=O)Nc1ccc(-n2ccc(C(F)(F)F)n2)cc1,0.01,0.65
CCCCNC(=S)N/N=C/c1ccc(C#N)cc1,0.61,-0.03
CCn1cc(CN2CCC(n3nccc3NC(=O)CCOc3ccccc3)CC2)cn1,1.9,-1.2
CC(C)(C)c1cc(C(=O)Nc2cccnc2)cc(C(=O)Nc2cccnc2)c1,0.33,-0.64
CCOC(=O)N/N=C1\CC(C)S(=O)(=O)c2ccc(Cl)cc21 (centres undefined),0.02,0.38
CC(C)(CO)NC(=O)c1ccc2nc(Cc3cccc(Cl)c3)oc2c1,0.39,-1.2
O=C(CSc1nncn1-c1ccccc1)Nc1cc(Cl)cc(Cl)c1,0.46,-0.92
O=C(Cc1c(Cl)cccc1Cl)NC1CC1,0.21,-0.95
Cc1cccc(N2CCN(C(=O)c3cccc(N4C(=O)C5C6C=CC(C6)C5C4=O)c3)CC2C)c1 (centres undefined),2,-0.31
O=C(O)c1cccc(N/C(=N\S(=O)(=O)c2ccccc2)c2ccccc2)c1,0.01,0.02
O=C(Cc1n[nH]c(=O)[nH]c1=O)N/N=C/c1ccccc1O,0.09,0.56
NC(=S)N/N=C/c1cccc(/C=N/NC(N)=S)c1,0.85,-0.43
O=C(O/N=C/c1ccc2c(c1)OCO2)c1ccccc1Cl,1.1,-0.23

# Structural class: those above with a tert-butyl group (3)
Structure,KCNQ2 enhance,KCNQ2 enhance baseline
CC(C)(C)OC(=O)N[C@@H](Cc1c[nH]c2ccccc12)c1nnc(SCC(N)=O)o1,0.37,0.86
COc1cc([C@@H]2c3cc4c(cc3[C@@H](O)[C@H]3COC(=O)[C@H]23)OCO4)cc(OC)c1O[Si](C)(C)C(C)(C)C,1.1,0.9
CC(C)(C)c1cc(C(=O)Nc2cccnc2)cc(C(=O)Nc2cccnc2)c1,0.33,-0.64

# Going on with the list.
Structure,KCNQ2 enhance,KCNQ2 enhance baseline
CCn1c(SCC(=O)Nc2oc(-c3ccccc3)c(-c3ccccc3)c2C#N)nnc1-c1ccncc1,0.86,-0.34
CC(C)(CC(=O)O)CC(=O)Nc1ccc2c(c1)ncn2CCc1ccccc1,0.29,-0.67
COc1cc(/C=N/NC(=O)c2ccc(N3CCCC3=O)cc2)ccc1O,2.1,0.09
O=C(O)c1ccccc1NS(=O)(=O)c1cccc2nsnc12,1.1,1.2
Cn1c(=O)cc(SCC(=O)N2CCCC2)c2ccccc21,0.82,-2.4
CCCc1cc(=O)[nH]c(SCc2cccnc2)n1,0.03,0.81
CC1N=C2c3ccccc3N=C(SCc3cc(=O)n4cc(Cl)ccc4n3)N2C1=O (centres undefined),2.6,-1.5
CCN(CC)CCN(Cc1cc2cc(C)cc(C)c2[nH]c1=O)C(=S)NCc1ccco1,0.59,0.23
CC(C)CCOc1ccc(/C=N/N2C(=O)CSC2=S)cc1,1.1,0.04
COCCN(C(=O)COC(=O)c1cccnc1SC)c1c(N)n(Cc2ccccc2)c(=O)[nH]c1=O,0.49,-1.7
C/C(=N\N=C1\NC(=O)C(CC(=O)O)S1)c1ccccn1 (centres undefined),2.8,-1.8
Cc1ncc([N+](=O)[O-])n1CC(=O)NC1CCCC1,1.2,-0.99
Cc1occc1C(=O)NCCCCNC(=O)c1ccoc1C,0.46,-2.9
Cc1c(NC(=O)c2cccs2)c(=O)n(-c2ccccc2)n1C,0.12,-0.33
O=C(CSc1nc2ccccc2n1Cc1ccc(Cl)cc1)N/N=C/c1ccc(C(=O)O)cc1,0.98,1.1
O=C(O)CCS(=O)(=O)Cc1cccc(Cl)c1,0.57,1
O=c1c2ccccc2n2c(=S)[nH]nc2n1-c1ccccc1,1.2,0.31
CCOCCCNCc1cccc(OCc2ccc(F)cc2)c1,0.12,-0.59
Cc1nnc(SCC(=O)N(C)c2ccccc2)n1Cc1ccccc1,0.92,0.04
CC(C)CCNC(=O)C(=O)NC1CCCC1,1.2,-0.86
CC(C)OC(=O)CC(=O)CSc1nc2c(cc1C#N)CCCCC2,0.7,-2.4
c1ccc(OCc2nc(-c3ccccc3)no2)cc1,0.01,0.29

# Of the compounds above, these have bromine:
Structure,KCNQ2 enhance,KCNQ2 enhance baseline
O=C(c1ccc(Br)o1)N(c1ccccn1)C1CCCCC1,1.5,-1.4
O=C(Nc1ccc(Br)cc1)c1ccccc1Br,0.1,-1.7
CCCCC(=O)Nc1ccc(Br)cn1,0.29,-1.6

# Screening data (PubChem BioAssay)
